Bioassay records deposited in PubChem BioAssay by several laboratories.
CSC inhib = blocks cancer stem cells; AID 2717; 300,000 tested, 1.1% active; inhibition, % at 7.5 µM; cancer stem cell-like cells viability, luminescence;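 active = mean at 75% or more and at least half the replicates too; tested in HMLE shEcad cells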;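 also: 0% = median of negative and 100% = median of positive control wells; the first replicate is given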
Rce1 inhib = blocks yeast Ras-converting enzyme; calls only; yeast membranes, quenched prenylated peptide cleavage fluorescence; 290,000 tested, 0.27% active;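 active = fall in fluorescence gain of 50% or more versus controls, with final raw signal at or below 3038400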;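 also: plate controls were neutral control wells for no effect and wells lacking membranes for full effect; tested at 10 µM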
PABP polyA inh = PABP-poly(A) binding inhibition; 290,000 tested, 1% active; inhibition, % at 35 µM; AID 2014; P11940; PABP-poly(A) RNA binding, fluorescence polarization;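 active = 50% or more with normal probe brightness, or confirmed in later tests; about a fifth of its hits are not listed in these tables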;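 also: calls also rest on retests at 20 µM and on dose response follow-up; controls were probe without protein and protein plus probe with vehicle; some compounds called inactive have numbers as strong as hits; many hits fall short of the cut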
Target sequence (P11940 whole entry, looked up): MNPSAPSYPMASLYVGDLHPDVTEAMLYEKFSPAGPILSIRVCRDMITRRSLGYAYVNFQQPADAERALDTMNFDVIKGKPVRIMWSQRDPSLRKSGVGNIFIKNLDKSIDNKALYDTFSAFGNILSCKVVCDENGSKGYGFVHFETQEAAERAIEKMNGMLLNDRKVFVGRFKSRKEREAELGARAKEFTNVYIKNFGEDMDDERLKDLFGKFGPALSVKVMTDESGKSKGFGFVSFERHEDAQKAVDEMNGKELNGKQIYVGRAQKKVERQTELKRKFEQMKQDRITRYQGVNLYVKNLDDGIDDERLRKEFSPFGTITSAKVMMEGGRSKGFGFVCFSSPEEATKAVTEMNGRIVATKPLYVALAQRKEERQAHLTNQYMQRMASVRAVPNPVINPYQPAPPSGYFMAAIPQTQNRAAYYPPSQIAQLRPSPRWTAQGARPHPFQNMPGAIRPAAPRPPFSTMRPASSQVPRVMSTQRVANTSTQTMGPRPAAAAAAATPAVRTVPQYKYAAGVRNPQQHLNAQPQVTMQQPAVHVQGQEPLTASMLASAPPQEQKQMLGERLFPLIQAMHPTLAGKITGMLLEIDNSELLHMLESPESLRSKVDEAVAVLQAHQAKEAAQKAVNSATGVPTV
MT1-MMP act inh = inhibitors of human MT1-MMP activation. HT1080 RFP-PRO-GFP cells, GFP/RFP ratio fluorescence, overnight; percent of plate control window, DMSO zero. AID 651647. 360,000 tested, 0.061% active. P50281. GFP/RFP ratio change, % at 20 µM;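 active = GFP/RFP ratio change of at least 30% with cell ATP level not reduced by more than half and red fluorescence within 50% of control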; also: strong numbers were not always called active
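system = RFP-PRO-GFP reporter HT1080 cells | dosing = 20 µM single dose, 1% DMSO | timing = overnight cell settling, then overnight compound exposure, 37 °C, 5% CO2 | read-out basis = GFP/RFP fluorescence ratio | controls = DMSO and RFP-L50D-GFP cell wells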
Env fusion inh = inhibitors of HIV Env-mediated cell fusion. HeLa-JRFL Env/CEM21 cell fusion, luciferase. inhibition, % at 12.3 µM. 360,000 tested, 1.1% active. AID 651610;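 active = mean replicate inhibition score of at least 50 and every replicate individually at or above 50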;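 also: 0% = plate neutral controls and 100% = maraviroc near 300 nM; one replicate is shown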
Yeast UUG start = alters start codon recognition fidelity in yeast. S. cerevisiae UUG-firefly luciferase reporter, luminescence/redox ratio. activity score, % at 18.7 µM. 350,000 tested, 0.13% active;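 active = replicate mean at a twofold rise or more, about +100% in these data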;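 also: firefly luciferase made from a UUG start codon reports start codon fidelity; reporter light over untreated wells divided by growth signal over untreated wells; some hits fall short of that in this replicate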
eIF4H FP inh = inhibitors of RNA binding by human eIF4H; Q15056; eIF4H fluorescence polarization binding assay; inhibition, % at 35 µM; 290,000 tested, 0.94% active; AID 2012;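 active = 50% or more with normal probe brightness, or confirmed in later tests; about a fifth of its hits are not listed in these tables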;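 also: calls also rest on retests at 20 µM and on dose response follow-up; 0% = protein and probe with vehicle and 100% = probe without protein; strong numbers were not always called active; many hits fall short of the cut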
eIF4H FP inh retest = recorded beside eIF4H FP inh, whose call it bears; inhibition, %; compound at 20 µM; confirmation average;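 mean of two retest wells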
PABP polyA inh retest = recorded beside PABP polyA inh, whose call it bears; inhibition, %; compound at 20 µM; confirmation repeats;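 mean of two retest wells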
MT1-MMP act inh RFP = further read-out of MT1-MMP act inh, marked with its call; RFP signal change, %; measured here: RFP expression control read;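 0 = vehicle wells; hits needed this value within 50% of zero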
Numbers without * were called inactive; i = inactive; x = not tested or not shown.

SMILES	CSC inhib	Rce1 inhib	PABP polyA inh	MT1-MMP act inh	MT1-MMP act inh RFP	Env fusion inh	Yeast UUG start	eIF4H FP inh	others
Cc1nc2[nH]c(=S)[nH]c2c(=O)[nH]1	x	x	x	0	-1	1	-6	x
O=C(NCc1ccc(Cl)nc1)c1csc([C@@H]2C[C@H](O)[C@@H](CO)O2)n1	x	x	x	-2	5	-11	6	x
O=[N+]([O-])c1ccccc1/C=C/C=N/n1c(-c2ccccc2)n[nH]c1=S	-5	i	-2	1	1	-4	x	0
Cc1cccc(CNC(=O)c2sc(=O)n(Cc3ccccc3C)c2C)c1	x	x	x	5	-6	1	-28	x
O=C(C1CCC1)N1CCC(c2nc3c(nnn3Cc3c(F)cccc3Cl)c(=O)[nH]2)CC1	-4	x	-7	-3	-4	-10	19	-2
CC(=O)c1cccc(OCCCOc2cccc3cccnc23)c1	-19	i	0	0	0	-28	-13	1
CC(C)CN(CC(C)C)C(=O)COn1nnc2ccc(S(=O)(=O)N3CCOCC3)cc21	-19	x	x	3	0	6	-13	x
O=C(c1ccccc1F)N(Cc1cccnc1)Cc1cc2cc3c(cc2[nH]c1=O)OCCO3	0	i	8	0	2	11	-14	-7
Cc1cc(C(=O)Nc2cccc(C(=O)O)c2)c(C)o1	-7	i	0	1	0	2	-23	2
Cc1ccc(Nc2cc(C)nc3c(C)ccc([N+](=O)[O-])c23)cc1	6	i	-2	12	6	22	x	-7
CSC1=NCCN1S(=O)(=O)c1ccc2ccccc2c1	-7	i	11	-1	-1	6	x	4
Cc1c(NC(=O)COC(=O)C23CC4CC(CC(Br)(C4)C2)C3)c(=O)n(-c2ccccc2)n1C	-4	i	-3	6	4	6	-2	-8
Cc1ccc2occ(/C=N/O)c(=O)c2c1	4	i	-5	0	3	x	23	-2
COc1ccc(CCNC(=O)c2c(N)no[n+]2[O-])cc1OC	x	i	2	-2	-5	3	-6	6
COC(=O)c1c(NC(=O)c2ccco2)sc2c1CCN(C(C)=O)C2	3	i	-5	2	4	23	-5	3
COc1ccc(C(=O)NNC2=NC(C)(C)Cc3cc(C)c(C)cc32)cc1	-10	i	-11	1	1	x	-6	-1
Cc1[nH][nH]c(=O)c1N=Nc1ccc(Cl)cc1	5	i	10	9	3	-27	x	-2
O=C(NCc1ccco1)C(=O)NCC1OCCCN1S(=O)(=O)c1ccc(Cl)cc1 (stereo unspecified)	0	x	-2	-1	4	7	x	6
O=C1C(=O)N(CCS(=O)(=O)c2ccccc2)c2ccc(Cl)cc21	28	i	-2	-11	11	0	-14	-5
C=CCn1c(N)c(C(=O)Nc2ccccc2)c2nc3ccccc3nc21	-34	i	30	-13	-3	x	-12	19
CCCCC(=O)Nc1cc(OC)c(NC(=O)C2CCCCC2)cc1OC	-2	x	1	3	5	-45	-22	-9
COc1ccc(CC(=O)O/N=C(\N)c2ccc(C)cc2)cc1	-7	i	-8	2	-2	-21	-40	-7
Cc1cc(N)ccc1N=Nc1c(C)n(C)n(-c2ccccc2)c1=O	x	i	36	9	6	-75	-4	-2
CCOC(=O)C1CCN(C(=O)CN(c2ccc(OC)cc2)S(=O)(=O)c2c(C)nn(C)c2C)CC1	-18	i	16	2	2	4	-12	-2
O=C(NCCCN1CCOCC1)c1cc(-c2ccc3c(c2)OCO3)nc2ccccc12	-15	i	10	-1	3	-13	-2	-1
COc1ccc(OC)c(CCNC(=O)c2cccc(NC(=O)C3=C(C)OCCS3)c2)c1	-15	i	9	3	-2	-8	-1	-2
CCC(=O)Nc1nnc(Cc2ccccc2)s1	-6	i	-4	2	0	-23	5	-15
CC1CCC2(CC1)NC(=O)N(CC(=O)N1CCOCC1)C2=O (stereo unspecified)	-7	x	x	0	5	2	-4	x
CCc1ccc(/C=N/NC(=O)c2ccccn2)cc1	27	i	-4	9	8	-2	-76	11
COc1ccccc1NS(=O)(=O)c1cc(C(=O)NCc2ccco2)ccc1C	-3	i	-2	3	-1	-37	24	2
COc1ccc(Cc2nnc(NC(=O)c3cccs3)s2)cc1OC	5	i	68	-2	-3	-11	-12	-9	eIF4H FP inh retest=-5;PABP polyA inh retest=1
CC1CCc2c(sc(NC(=O)C3=COCCO3)c2C(N)=O)C1 (stereo unspecified)	-4	x	x	-1	0	-186	-13	x
Cc1cccc(CC(=O)NC2CCS(=O)(=O)C2)c1 (stereo unspecified)	1	i	x	1	2	-5	-8	x
CS(=O)(=O)c1[nH]nc(-c2ccccc2)c1C#N	-6	i	-2	1	0	-4	x	-4
O=C(COC(=O)c1ccccc1F)NC1CC1	-4	x	x	-5	0	x	-3	x
CCc1ccc(N(C(=O)CNC(=O)c2ccco2)C(C(=O)NC2CCCC2)c2ccncc2)cc1 (stereo unspecified)	4	i	17	2	1	-7	-5	75	eIF4H FP inh retest=-5;PABP polyA inh retest=4
COc1ccc(/C=C(/NC(=O)c2ccccc2Cl)C(=O)O)cc1	x	i	-5	-1	1	14	x	0
Cc1ccc(C(=O)C(C)OC(=O)c2nc(Cl)ccc2Cl)cc1 (stereo unspecified)	-12	i	0	1	2	10	-11	7
Cc1ccc(C)c(CSc2nnc(CCN)o2)c1	-9	i	-8	-2	-1	6	-9	4
c1ccc(COc2ccc(CN3CCN(c4ccccn4)CC3)cc2)cc1	25	i	14	-1	-2	x	-23	8
CCOc1ccc(S(=O)(=O)NCCC(=O)NCC2COc3ccccc3O2)cc1 (stereo unspecified)	-8	x	x	2	0	2	-8	x
Cc1ccc(Cl)cc1N1CCN(S(=O)(=O)c2ccc3[nH]c(=O)ccc3c2)CC1	37	i	-13	-1	-1	-11	-6	0
O=C(Nc1ccccc1)C1=C[C@@H](c2coc3ccccc3c2=O)C[C@@H](OCCCCO)O1	-11	i	-1	2	-1	4	-17	3
O=C(CC(SCCO)c1ccc2c(c1)OCO2)c1ccco1 (stereo unspecified)	1	i	-2	2	2	x	-10	-2
CC1Cc2ccccc2N1S(=O)(=O)c1cccc(C(=O)NCC(c2ccco2)N2CCCC2)c1 (stereo unspecified)	x	x	x	5	1	9	-6	x
O=S(=O)(c1ccc(N2CCOCC2)nc1)N1CCOCC1	3	i	0	8	-1	-30	-7	-4
CCCn1c(SCC(=O)NC2CCC(C)CC2)n[nH]c1=O (stereo unspecified)	11	x	x	-2	3	x	-8	x
CCN(CC)C(=O)c1cccc(-c2csc(C(C)(O)c3cccc(OC)c3)n2)c1 (stereo unspecified)	x	x	x	-8	-24	13	-10	x
COc1ccc(CC(=O)OCC(=O)NC(=O)NC(C)C)cc1	-2	i	3	3	6	-64	-24	0
CCn1c(COc2ccccc2C)nnc1SCC(=O)Nc1ccc2c(c1)OCCO2	x	i	6	2	-5	21	1	-10
The listing continues.
SMILES	CSC inhib	Rce1 inhib	PABP polyA inh	MT1-MMP act inh	MT1-MMP act inh RFP	Env fusion inh	Yeast UUG start	eIF4H FP inh	others
O=C(/C=C/c1ccccc1)Nc1cccc(C(=O)NCCCc2ccccc2)c1	x	x	x	5	-11	-21	-14	x
CCn1c(C)nnc1SCC(=O)Nc1ccccc1Cl	-13	i	0	4	8	-11	-22	1
Cc1cc2ccccc2nc1SCC(=O)Nc1nc(-c2ccccc2)cs1	16	i	4	-3	-2	-40	0	-15
O=C(Cn1cc(COc2c(Br)cc(F)cc2Br)nn1)c1ccc(O)cc1	x	x	x	-1	1	-35	33	x
O=C(CNS(=O)(=O)c1ccc(Cl)c(C(F)(F)F)c1)NC1CCCCC1	x	x	x	2	3	31	-22	x
CN(C)S(=O)(=O)Oc1ccccc1C(=O)Nc1ccc(F)cc1	0	i	3	1	0	1	x	4
COc1ccc(OC)c(S(=O)(=O)NCC(c2ccc3c(c2)OCO3)N2CCOCC2)c1 (stereo unspecified)	-13	i	x	2	6	3	-18	x
COc1ccc(-c2ccc3c(c2)S(=O)(=O)c2cccc(C(=O)NCc4cccc(OC(F)(F)F)c4)c2C3=O)cc1OC	60	x	x	-115	-1	x	-12	x
O=C(CSc1nnc2c(n1)[nH]c1ccc(F)cc12)Nc1ccccc1F	1	i	4	2	-10	13	-16	-2
O=C1NCC(COc2cccc3ccccc23)O1 (stereo unspecified)	-12	i	-2	1	0	-7	x	-6

Among those listed so far, these have a CF3 group:
SMILES	CSC inhib	Rce1 inhib	PABP polyA inh	MT1-MMP act inh	MT1-MMP act inh RFP	Env fusion inh	Yeast UUG start	eIF4H FP inh	others
O=C(CNS(=O)(=O)c1ccc(Cl)c(C(F)(F)F)c1)NC1CCCCC1	x	x	x	2	3	31	-22	x
COc1ccc(-c2ccc3c(c2)S(=O)(=O)c2cccc(C(=O)NCc4cccc(OC(F)(F)F)c4)c2C3=O)cc1OC	60	x	x	-115	-1	x	-12	x

Going on with the list.
SMILES	CSC inhib	Rce1 inhib	PABP polyA inh	MT1-MMP act inh	MT1-MMP act inh RFP	Env fusion inh	Yeast UUG start	eIF4H FP inh	others
CC1CCCCN1C(=O)c1cc(F)c(F)cc1Cl (stereo unspecified)	-6	i	-4	2	2	x	-19	-17
CC1=C(C(=O)OC(C)(C)C)C(c2cccs2)NC(=O)N1 (stereo unspecified)	-8	i	17	-7	0	-3	-18	2
CCCc1cc(=O)[nH]c(SCC(=O)N(C)Cc2ccccc2)n1	-17	i	-5	5	5	x	11	-2
Cc1ccc(OC(C)C(=O)Nc2ccc(Cl)cn2)c([N+](=O)[O-])n1 (stereo unspecified)	-15	x	x	-2	-3	-9	-9	x
COC(=O)c1ccc(NC(=O)CSc2nnc(-c3ccncc3)n2N)cc1	-7	i	-3	8	-3	-23	-16	3
Cn1c(=O)c2ncn(CC(=O)NCCOc3ccccc3)c2n(C)c1=O	-16	i	10	1	-6	1	5	0
CC(C)CC(NC(=O)/C(=C/c1ccco1)NC(=O)c1ccc(Br)o1)C(=O)O (stereo unspecified)	-14	i	7	-1	3	3	-8	12
Cc1nn2c(NCCN(C)C)c3c(nc2c1-c1ccccc1)CCC3	-12	i	-9	7	-3	-11	-21	1

Of the compounds above, these have an aryl thioether with sulfur outside any ring.
SMILES	CSC inhib	Rce1 inhib	PABP polyA inh	MT1-MMP act inh	MT1-MMP act inh RFP	Env fusion inh	Yeast UUG start	eIF4H FP inh	others
Cc1ccc(C)c(CSc2nnc(CCN)o2)c1	-9	i	-8	-2	-1	6	-9	4
CCCn1c(SCC(=O)NC2CCC(C)CC2)n[nH]c1=O (stereo unspecified)	11	x	x	-2	3	x	-8	x
CCn1c(COc2ccccc2C)nnc1SCC(=O)Nc1ccc2c(c1)OCCO2	x	i	6	2	-5	21	1	-10
CCn1c(C)nnc1SCC(=O)Nc1ccccc1Cl	-13	i	0	4	8	-11	-22	1
Cc1cc2ccccc2nc1SCC(=O)Nc1nc(-c2ccccc2)cs1	16	i	4	-3	-2	-40	0	-15
O=C(CSc1nnc2c(n1)[nH]c1ccc(F)cc12)Nc1ccccc1F	1	i	4	2	-10	13	-16	-2
CCCc1cc(=O)[nH]c(SCC(=O)N(C)Cc2ccccc2)n1	-17	i	-5	5	5	x	11	-2
COC(=O)c1ccc(NC(=O)CSc2nnc(-c3ccncc3)n2N)cc1	-7	i	-3	8	-3	-23	-16	3
